Assay outcomes deposited in PubChem BioAssay by National Center for Advancing Translational Sciences (NCATS).
2A Renilla = lowers the Renilla signal of an FMDV 2A StopGo reporter; actives 0.32% (n = 120,000); AID 1745857; Potency, µM (titrated, usually from 57.5 µM), inactives show at the top dose signal change, negative = less light; HEK cells with a luciferase reporter of 2A StopGo recoding; active means well fitted falling curve with a large enough effect; inconclusive means small, poorly fitted or top-dose-only effect; inactive means no such curve, though single readings can be large or run the other way; further: nearly all actives have a fitted effect of over 55% in size; overnight with compound
StopGo FLuc = FMDV 2A StopGo reporter, firefly signal; HEK cells with a luciferase reporter of 2A StopGo recoding; Potency, µM (top dose mostly 57.5 µM), for the others: at the highest dose signal change, negative = less light; actives 0.23% (n = 120,000); active = well fitted falling curve with a large enough effect; inconclusive = small, poorly fitted or top-dose-only effect; inactive = no such curve, though single readings can be large or run the other way; further: nearly all actives have a fitted effect of over 60% in size; overnight with compound
* marks the source's active call; other numbers are inactive results; [ ] = remark or other dose. On the % scale 0 is the no-effect control and ±100 the full control effect; potency means the concentration at half of the fitted maximal effect. Some of the compounds tested; rates above refer to the full screens.

What do the screens show for `CSc1cccc(N/C=C/C(=O)c2ccc(C)c(C)c2)c1`?
2A Renilla: 19%; StopGo FLuc: 138%[activator]

Results for CC(=O)N(CCC1(c2ccc(C)cc2)CCOC(C(C)C)C1)Cc1ccccc1 (stereo unspecified) ?
2A Renilla: 28%; StopGo FLuc: -11%

What do the screens show for `O=C(CCCn1c(=O)c2sccc2n(Cc2cccc(Cl)c2)c1=O)NCc1ccc2c(c1)OCO2`?
2A Renilla: 2%; StopGo FLuc: 21%

How did Cc1ccc2[nH]c(C(=O)NCCOc3ccccc3)cc2c1 do in these assays?
2A Renilla: 10%; StopGo FLuc: 190%[activator]

What do the screens show for `CN1CCN(C(C(=O)O)c2cn(C)c3cc(C(=O)O)ccc23)CC1` (stereo unspecified)?
2A Renilla: 0%; StopGo FLuc: 1%

Results for CN(CC(=O)Nc1ccc(Nc2ccccc2)cc1)S(=O)(=O)c1ccccc1 ?
2A Renilla: 24%; StopGo FLuc: -13%

Results for COc1cc2c(C(=O)N(C)c3cccc(C(F)(F)F)c3)cn(CC(C)C)c(=O)c2cc1OC ?
2A Renilla: 3%; StopGo FLuc: -13%

Results for CC(=O)c1ccc(NC(=O)Cn2ncc3c(C)n(Cc4ccc(F)cc4)c(C)c3c2=O)cc1 ?
2A Renilla: -10%; StopGo FLuc: -16%

What do the screens show for `CCOC(=O)c1cc(NCc2cccc(Cl)c2Cl)ccc1N1CCOCC1`?
2A Renilla: 31%[activator]; StopGo FLuc: 19%

How did COc1ccc(-c2nn3c(=O)cc(CN4CCN(C(=O)c5ccc(OC)c(OC)c5)CC4)nc3s2)cc1 do in these assays?
2A Renilla: -8%; StopGo FLuc: -4%

How did C/C=C/C1(NCCc2ccccc2)CCCCC1 do in these assays?
2A Renilla: -13%; StopGo FLuc: 0%

How did Brc1ccc(CSc2ccc(-c3ccccn3)nn2)cc1 do in these assays?
2A Renilla: -9%; StopGo FLuc: 0%

What do the screens show for `COc1cc(C(=O)Nc2ccc3oc(-c4ccccc4F)cc(=O)c3c2)cc(OC)c1OC`?
2A Renilla: 9%; StopGo FLuc: 208%[activator]

Results for COc1ccc(CNC(=O)c2ncoc2-c2cccc(Cl)c2)cc1OC ?
2A Renilla: 8%; StopGo FLuc: 20%

What do the screens show for `CS(=O)(=O)CCNCc1ccc(-c2ccc3ncnc(Nc4ccc(OCc5cccc(F)c5)c(Cl)c4)c3c2)o1`?
2A Renilla: -14%; StopGo FLuc: 1%[11.5 µM]

How did Cc1cccc(N2CC(C(=O)Nc3ccc(S(=O)(=O)Nc4ncccn4)cc3)CC2=O)c1C (stereo unspecified) do in these assays?
2A Renilla: -3%; StopGo FLuc: -4%

How did Cc1ccc(Sc2c(C)nn(-c3ccccc3)c2OC(=O)C(C)(C)C)cc1 do in these assays?
2A Renilla: -8%; StopGo FLuc: -14%

Results for Cc1nc2ccccc2nc1COC(=O)c1cccnc1 ?
2A Renilla: -8%; StopGo FLuc: -5%

Results for CCC(C)NC(=O)CCNC(=O)c1ccc2nc(C)c(C)nc2c1 (stereo unspecified) ?
2A Renilla: -7%; StopGo FLuc: 79%[activator]

How did CCOc1ccc(CN(Cc2ccccc2)Cc2cc(=O)n3ccc(C)cc3n2)cc1 do in these assays?
2A Renilla: inconclusive; StopGo FLuc: inconclusive

Results for CCC1CCCCN1C(=O)c1ccccc1Br (stereo unspecified) ?
2A Renilla: -8%; StopGo FLuc: 3%

How did Cc1cccc(NC(=O)Nc2nnc(N(C)Cc3ccccc3)s2)c1 do in these assays?
2A Renilla: -14%; StopGo FLuc: 15%

Results for O=C(OCCc1ccccc1)c1ccc([N+](=O)[O-])cc1 ?
2A Renilla: 6%; StopGo FLuc: 0%

How did CCOc1ccccc1NC(=O)c1cc(S(=O)(=O)N2CCOCC2)cn1C do in these assays?
2A Renilla: -7%; StopGo FLuc: -5%

How did COCCN1CCn2c(nc3cc(C(=O)NC(C)C)ccc32)C1 do in these assays?
2A Renilla: 9%; StopGo FLuc: 30%

How did CCNc1nc(SCC(=O)NC)nc2ccccc12 do in these assays?
2A Renilla: 10%; StopGo FLuc: 19%

Results for CC(CCc1ccccc1)NC(=O)C1CC1C (stereo unspecified) ?
2A Renilla: -1%; StopGo FLuc: 10%

How did S=C(NCc1ccco1)Nc1ccc(Br)cc1 do in these assays?
2A Renilla: inconclusive; StopGo FLuc: 107%[activator]

How did CCc1ccc2nc(N(CCN(CC)CC)C(=O)c3cccs3)sc2c1 do in these assays?
2A Renilla: -14%; StopGo FLuc: 20%

Results for Cc1ccc(N2CC(C)Cn3c2nc2c3c(=O)n(Cc3cccc(Cl)c3)c(=O)n2C)cc1 (stereo unspecified) ?
2A Renilla: 7%; StopGo FLuc: -25%

Ordered by heavy-atom count (falling): 3 of the compounds above.
Results for O=C(OCCc1ccccc1)c1ccc([N+](=O)[O-])cc1 ?
2A Renilla: 6%; StopGo FLuc: 0%

How did CCNc1nc(SCC(=O)NC)nc2ccccc12 do in these assays?
2A Renilla: 10%; StopGo FLuc: 19%

How did S=C(NCc1ccco1)Nc1ccc(Br)cc1 do in these assays?
2A Renilla: inconclusive; StopGo FLuc: 107%[activator]

Additional results follow.
What do the screens show for `CN(C)S(=O)(=O)c1ccc(C(=O)NCCSc2c(-c3ccc(Br)cc3)[nH]c3ccccc23)cc1`?
2A Renilla: 8%; StopGo FLuc: -5%

How did O=C(CCc1ccc(-c2ccccc2)o1)NC1CCS(=O)(=O)C1 (stereo unspecified) do in these assays?
2A Renilla: inconclusive; StopGo FLuc: 41%[activator]

Results for COc1ccc(-c2noc(CNC(=O)CCc3c(C)c4ccc(OC)cc4oc3=O)n2)cc1 ?
2A Renilla: -1%; StopGo FLuc: 2%

Results for C=C(C)Cn1c(N2CCN(Cc3ccccc3)CC2)nc2c1c(=O)[nH]c(=O)n2C ?
2A Renilla: -1%; StopGo FLuc: 1%

Results for COC(=O)C(CC(=O)c1ccc(Br)cc1)(Cc1ccc(Br)cc1)C(=O)OC ?
2A Renilla: 10%; StopGo FLuc: 14%

What do the screens show for `CCOc1ccc(NC(=O)Cn2nc(Cc3ccncc3)c3ccccc3c2=O)cc1`?
2A Renilla: -20%; StopGo FLuc: -12%

How did O=C(/C=C/c1ccccc1)NC(O)C(=O)c1ccccc1 (stereo unspecified) do in these assays?
2A Renilla: 23%; StopGo FLuc: 130%[activator]

What do the screens show for `CCOC(=O)c1ccc(NC(=O)CSc2nc(-c3cccs3)cc(C(F)(F)F)c2C#N)cc1`?
2A Renilla: -12%; StopGo FLuc: -23%

What do the screens show for `COC(=O)c1ccc(COc2ccccc2/C=C/C(=O)c2ccc(Cl)cc2Cl)cc1`?
2A Renilla: 9%; StopGo FLuc: 15%

What do the screens show for `O=C(Nc1c(N2CCCC2)c2ccccc2oc1=O)c1ccco1`?
2A Renilla: -5%; StopGo FLuc: 2%

How did CCN(Cc1ccco1)C(=O)c1cc2ccc(C(C)C)cc2[nH]1 do in these assays?
2A Renilla: 82%[activator]; StopGo FLuc: 161%[activator]

What do the screens show for `CCc1ccc2nc(N3CCC(C(=O)NCCC(C)C)CC3)sc2c1`?
2A Renilla: 13%; StopGo FLuc: 260%[activator]

Results for O=C1CC(c2cccc(Cl)c2)Cc2c1cnn2-c1nc2ccccc2[nH]1 (stereo unspecified) ?
2A Renilla: 17%; StopGo FLuc: 19%

What do the screens show for `Cc1ccc(CNC(=O)C2CCCN(c3nc4c(C)cc(C)cc4s3)C2)cc1` (stereo unspecified)?
2A Renilla: -5%; StopGo FLuc: 0%

How did O=C(COC(=O)C1(c2ccccc2F)CCCC1)Nc1ccc(C(F)(F)F)cc1[N+](=O)[O-] do in these assays?
2A Renilla: inconclusive; StopGo FLuc: inconclusive

What do the screens show for `COc1ccc(CCNC(=O)C(=O)NCC(c2ccco2)S(=O)(=O)c2ccc(F)cc2)cc1` (stereo unspecified)?
2A Renilla: 9%; StopGo FLuc: 0%

What do the screens show for `Cc1ccc(NC(=O)N2CCN(C(=O)c3nsc4ccccc34)CC2)cc1C`?
2A Renilla: -12%; StopGo FLuc: 27%

What do the screens show for `CCN(C(=O)c1cc2c(=O)oc3ccc(C)cc3c2s1)c1ccccc1F`?
2A Renilla: -9%; StopGo FLuc: -8%

Results for Cc1cc(C(=O)COC(=O)c2cc3ccccc3oc2=O)c(C)n1CC1CCCO1 (stereo unspecified) ?
2A Renilla: 35%[activator]; StopGo FLuc: 132%[activator]

How did COc1cc(C(=O)Nc2ccc(-c3nc4cc(C)ccc4o3)cc2)cc(OC)c1OC do in these assays?
2A Renilla: 9%; StopGo FLuc: 184%[activator]

Nothing new here: entries from further up.
Results for O=C1CC(c2cccc(Cl)c2)Cc2c1cnn2-c1nc2ccccc2[nH]1 (stereo unspecified) ?
2A Renilla: 17%; StopGo FLuc: 19%

What do the screens show for `Cc1ccc(CNC(=O)C2CCCN(c3nc4c(C)cc(C)cc4s3)C2)cc1` (stereo unspecified)?
2A Renilla: -5%; StopGo FLuc: 0%

How did O=C(COC(=O)C1(c2ccccc2F)CCCC1)Nc1ccc(C(F)(F)F)cc1[N+](=O)[O-] do in these assays?
2A Renilla: inconclusive; StopGo FLuc: inconclusive

What do the screens show for `COc1ccc(CCNC(=O)C(=O)NCC(c2ccco2)S(=O)(=O)c2ccc(F)cc2)cc1` (stereo unspecified)?
2A Renilla: 9%; StopGo FLuc: 0%

Other entries.
How did CC1=C(C(=O)Nc2ccccc2C)C(c2ccc(C(=O)O)cc2)n2ncnc2N1 (stereo unspecified) do in these assays?
2A Renilla: -1%; StopGo FLuc: 12%

How did CN1CC(=O)N(CCCC(=O)Nc2cnc3ccccc3c2)C1=O do in these assays?
2A Renilla: -14%; StopGo FLuc: 0%

Results for CC(=O)NC(NC(C)=O)C(O)C(O)C(O)C(O)CO (stereo unspecified) ?
2A Renilla: -5%; StopGo FLuc: -1%

What do the screens show for `Cc1ccc(CNC(=O)c2cc3c(=O)n(Cc4cccnc4)ccc3nc2C)cc1`?
2A Renilla: -1%; StopGo FLuc: -10%

Results for COc1ccc(/C=C(/C#N)c2nc3ccccc3[nH]2)c2ccccc12 ?
2A Renilla: -25%; StopGo FLuc: -29%

How did COc1ccc(NC(=O)CCNS(=O)(=O)c2cccc3nsnc23)cc1Cl do in these assays?
2A Renilla: 60%[activator]; StopGo FLuc: -3%

How did CC(C)OC(=O)c1cc2c(OCC(O)CNC(C)(C)C)cccc2[nH]1 (stereo unspecified) do in these assays?
2A Renilla: -7%; StopGo FLuc: 5%[11.5 µM]

What do the screens show for `COc1ccc(CNC(=O)CCCc2nnc3n(C(C)C)c(=O)c4sccc4n23)cc1`?
2A Renilla: -11%; StopGo FLuc: 12%

Results for Cc1nc2cc(F)ccc2cc1C(=O)NCc1cccnc1-n1cncn1 ?
2A Renilla: -5%; StopGo FLuc: 9%

How did Cc1ccc(NC(=O)C(C)N(C)Cc2ccc3c(c2)OCCO3)c(Br)c1 (stereo unspecified) do in these assays?
2A Renilla: -28%; StopGo FLuc: 0%

How did CC(C)C(=O)Nc1nnc(SCc2cc(=O)n3ccccc3n2)s1 do in these assays?
2A Renilla: -15%; StopGo FLuc: -24%

Results for C/C(=C/C(=O)C(F)(F)F)N1CCN(c2ccccc2F)CC1 ?
2A Renilla: 3%; StopGo FLuc: -2%

What do the screens show for `O=C(NC1CC(=O)N(c2ccc(F)cc2)C1)c1cccs1` (stereo unspecified)?
2A Renilla: -12%; StopGo FLuc: -20%

Results for CCOC(=O)NC(CNC(=O)c1cccc(C)c1C)CC(C)C (stereo unspecified) ?
2A Renilla: 10%; StopGo FLuc: -1%

Results for Cc1c(S(=O)(=O)c2cccc(Cl)c2)nnn1-c1cccc(C(F)(F)F)c1 ?
2A Renilla: 11%; StopGo FLuc: -5%

Results for COc1cccc2cc(C(=O)Nc3ccccc3OC(F)F)c(=O)oc12 ?
2A Renilla: -3%; StopGo FLuc: 120%[activator]

How did CCOc1ccc(NC(=O)CC2C(=O)Nc3nc4ccccc4n32)cc1 (stereo unspecified) do in these assays?
2A Renilla: -17%; StopGo FLuc: -14%

Results for CC(CC(=O)Nc1ccccc1)(C(=O)O)c1ccccc1 (stereo unspecified) ?
2A Renilla: -7%[1.06 µM]; StopGo FLuc: inconclusive

What do the screens show for `CCCN(C(=O)Cn1cc(S(=O)(=O)N2CCN(c3ccccc3F)CC2)c2ccccc2c1=O)c1cccc(C)c1`?
2A Renilla: 0%; StopGo FLuc: inconclusive

What do the screens show for `CCN(CC)CCNc1nc2c(c(=O)n(C)c(=O)n2C)n1Cc1ccc(C)cc1`?
2A Renilla: 2%; StopGo FLuc: 2%

Retrieved one by one from the entries so far:
Results for CC(CC(=O)Nc1ccccc1)(C(=O)O)c1ccccc1 (stereo unspecified) ?
2A Renilla: -7%[1.06 µM]; StopGo FLuc: inconclusive

How did CC(C)C(=O)Nc1nnc(SCc2cc(=O)n3ccccc3n2)s1 do in these assays?
2A Renilla: -15%; StopGo FLuc: -24%

Results for COc1cccc2cc(C(=O)Nc3ccccc3OC(F)F)c(=O)oc12 ?
2A Renilla: -3%; StopGo FLuc: 120%[activator]

Other records follow:
What do the screens show for `CCC(=O)N1c2ccccc2CC1C(=O)NCCc1ccccc1C` (stereo unspecified)?
2A Renilla: -7%; StopGo FLuc: 0%

Results for Cn1c(CCCOc2ccc(Cl)cc2Cl)n[nH]c1=S ?
2A Renilla: 13%; StopGo FLuc: 106%[activator]

How did CC(=O)c1ccc(NC(=O)c2nn(C(C)C)c(=O)c3ccccc23)cc1 do in these assays?
2A Renilla: 8%; StopGo FLuc: 70%[activator]

Results for Fc1cccc(NC(=S)NC2CCCC2)c1 ?
2A Renilla: 198%[activator]; StopGo FLuc: 0%

Results for COc1ccc(CNC(=O)c2cc(-c3cc(C)ccc3O)n[nH]2)cc1 ?
2A Renilla: -6%; StopGo FLuc: 19%
